HSV replic up: enhancers of HSV replication in host cells, fold increase, host cell viability; maximum fold increase; AID 1956, 2009; hit rate 0.005% among 220,000; HSV replication augmentation in cells;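 active means peak rise of 1.5-fold or more in the series; tested in PC3 cells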;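 further: first round at 10 µM; read as green reporter fluorescence; hits show the peak of a series up to 25 µM; 1 = signal of infected wells without compound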
Insulin prom inh: inhibitors of insulin promoter-driven GFP, primary screen, imaging, TRM-6 cells (human fetal islet line), eGFP reporter, cell count | reporter expression induced with tamoxifen | inhibition, % at 2 µM | hit rate 0.9% among 130,000 | AID 1273, 2008;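 active means inhibition above the mean plus 3 SD, with well images judged a real hit on visual review, cut at about 60% in these data, passing the limit was not always enough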
RGS16-Gao: modulators of RGS16 binding to Galphao, primary screen, biochemical, human proteins, multiplexed bead flow cytometry. bead-based flow cytometry RGS16-Galphao binding, fluorescence; actives lie on both sides. binding response (% of control), % at 10 µM. hit rate 0.38% among 220,000. AID 1441, 2008;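 active means below 25% or above 175%, edge rows of some plates excepted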;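 further: Galphao activated by GDP with aluminum fluoride before binding; 100% = wells without compound and 0% = beads without RGS; some results beyond the cut were filed as inactive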
GALR2 agonist: GALR2 receptor agonists, primary screen, cell-based; GALR2-expressing cells, agonist activation read-out; activation, %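 (tested at 5 µM)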; hit rate 0.48% among 140,000; Galanin receptor type 2 (Homo sapiens), O43603;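 active means above mean plus 3 SD of all compounds, about 5% in these data, not always enough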;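 further: 0% = vehicle buffer wells and 100% = reference agonist at full effect; tested in CHO reporter cells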
PKD1 kinase inh: inhibitors of human PKD1 kinase, biochemical, fluorescence polarization | Serine/threonine-protein kinase D1 (Homo sapiens), Q15139 | PKD1 kinase fluorescence polarization assay | inhibition, %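 (about 10 µM by stock and volumes)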 | hit rate 0.056% among 200,000 | AID 797, 2007;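 active means inhibition of 50% or more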;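 further: controls were vehicle for no effect and a reference inhibitor for full effect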
Target sequence (Q15139 whole entry, looked up): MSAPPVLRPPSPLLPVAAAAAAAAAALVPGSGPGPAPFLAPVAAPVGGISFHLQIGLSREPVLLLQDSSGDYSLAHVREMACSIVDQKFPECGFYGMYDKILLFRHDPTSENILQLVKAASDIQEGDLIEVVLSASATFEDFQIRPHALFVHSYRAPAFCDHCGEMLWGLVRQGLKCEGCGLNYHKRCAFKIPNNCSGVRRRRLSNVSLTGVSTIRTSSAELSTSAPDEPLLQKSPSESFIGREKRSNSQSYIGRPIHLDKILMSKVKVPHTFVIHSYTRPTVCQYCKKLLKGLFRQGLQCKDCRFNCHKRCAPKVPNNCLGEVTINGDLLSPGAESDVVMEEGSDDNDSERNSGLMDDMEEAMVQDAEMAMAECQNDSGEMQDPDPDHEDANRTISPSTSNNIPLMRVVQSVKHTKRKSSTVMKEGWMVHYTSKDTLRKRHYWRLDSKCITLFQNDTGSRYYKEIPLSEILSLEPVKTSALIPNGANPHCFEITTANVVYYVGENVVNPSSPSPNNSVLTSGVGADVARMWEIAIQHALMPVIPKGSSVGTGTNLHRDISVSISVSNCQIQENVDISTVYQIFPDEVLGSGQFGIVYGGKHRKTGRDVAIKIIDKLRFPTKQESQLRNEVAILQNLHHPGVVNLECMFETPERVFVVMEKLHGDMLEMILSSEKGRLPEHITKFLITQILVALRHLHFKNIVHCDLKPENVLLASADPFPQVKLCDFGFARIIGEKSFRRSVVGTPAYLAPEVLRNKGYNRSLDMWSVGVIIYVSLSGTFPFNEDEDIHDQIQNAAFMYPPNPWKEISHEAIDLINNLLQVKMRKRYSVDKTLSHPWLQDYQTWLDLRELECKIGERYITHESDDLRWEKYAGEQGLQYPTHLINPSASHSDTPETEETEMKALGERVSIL
Insulin prom inh cell count: recorded beside Insulin prom inh, whose call it bears; normalized cell count, %; measured here: cell count, toxicity; reference of the scale not given here;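 cells exposed to compound for 48 h; stained nuclei by imaging scaled within each plate; lower means fewer cells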
HSV replic up primary fold: recorded beside HSV replic up, whose call it bears; fold increase; compound at 10 µM; measured here: primary screen fold increase 10 uM; tested in PC3 cells;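 GFP signal in the first replicate; 1 = infected wells without compound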
Active calls of the source: *; i = inactive; nt = no result given.

SMILES | HSV replic up | HSV replic up primary fold | Insulin prom inh | Insulin prom inh cell count | RGS16-Gao | GALR2 agonist | PKD1 kinase inh
COCCNC(=O)c1cc2oc3ccccc3c2n1C | i | 0.88 | -17 | 94 | 143 | 0.1 | 2
CCOc1cc(-c2nc3ccccn3c2NCC2CCCO2)ccc1O (stereo unspecified) | i | 0.65 | 33 | 150 | 98 | -2.2 | 1
Cc1nn(CCOc2cccc(Br)c2)c(C)c1[N+](=O)[O-] | i | 0.98 | nt | nt | 100 | nt | -6
COc1ccc(-n2c(SCC(=O)Nc3ccccc3)nc3c(c2=O)SCC3)cc1 | i | 0.83 | nt | nt | 105 | -2.9 | 0
O=C(Nc1ccccc1SCC1CSc2nc3ccccc3c(=O)n21)c1ccccc1Cl (stereo unspecified) | i | 0.91 | -14 | 118 | nt | -0.1 | -5
Cc1cccc2c(C(=O)Nn3cnnc3)cc(-c3ccccc3Cl)nc12 | i | 0.95 | nt | nt | 98 | nt | -8
Cc1cc(C)nc(NS(=O)(=O)c2ccc(NC(=O)C3CC(=O)N(c4ccccc4)C3)cc2)n1 (stereo unspecified) | i | 0.97 | -20 | 102 | -54 | -1.9 | -3
CC(C)Oc1ccc(C(=O)N2CCCC2C(=O)O)cc1 (stereo unspecified) | i | 0.75 | nt | nt | 95 | -0.9 | 2
CCOC(=O)CSc1ccc(C(=O)N2CCN(C)CC2)cc1[N+](=O)[O-] | i | 0.96 | nt | nt | 105 | nt | -4
CCOc1ccc(-c2[nH]ncc2-c2ccc(OC)c(OC)c2)c(O)c1 | i | 0.6 | nt | nt | 104 | 0.1 | -8

As entered above:
For GALR2 agonist, `COc1ccc(-n2c(SCC(=O)Nc3ccccc3)nc3c(c2=O)SCC3)cc1` reads -2.9
For Insulin prom inh cell count, `Cc1cc(C)nc(NS(=O)(=O)c2ccc(NC(=O)C3CC(=O)N(c4ccccc4)C3)cc2)n1` (stereo unspecified) reads 102

More compounds:
SMILES | HSV replic up | HSV replic up primary fold | Insulin prom inh | Insulin prom inh cell count | RGS16-Gao | GALR2 agonist | PKD1 kinase inh
C1CCC(c2nn3c(-c4n[nH]c5c4CCC5)nnc3s2)CC1 | i | 0.9 | nt | nt | 97 | 1.3 | -5
S=c1nc(SCc2ccccc2)[nH]c2ccccc12 | i | 0.93 | 29 | 70 | 93 | nt | -6
CCN(CC)C(=O)c1sc(N)c(C(=O)OC(C)C)c1C | i | 1.1 | -33 | 97 | 99 | -1.1 | -11
COc1ccc(NC2=NC(=S)N(c3ccc(C)cc3)C23CCCCC3)cc1 | i | 0.72 | -68 | 151 | 108 | -2.4 | 8
COc1ccc(OC(=O)Nc2ccccc2)cc1 | i | 1.1 | 0 | 82 | 106 | -1.5 | 3
CN1CCN(S(=O)(=O)c2cccc(C(=O)N(c3ccccn3)C3CCCCC3)c2)CC1 | i | 1.1 | 0 | 79 | 102 | -2.0 | -7
COC(=O)c1ccc(C(C2C(=O)CC(C)(C)CC2=O)C2C(=O)CC(C)(C)CC2=O)cc1 | i | 1 | nt | nt | 99 | nt | nt
C/C(CC(=O)NCc1ccco1)=N\NC(=O)Cc1ccccc1 | i | 1.1 | nt | nt | 103 | -1.6 | 14
Cc1noc(C)c1CSCC(=O)N1CCN(c2ccc(F)cc2)CC1 | i | 0.86 | nt | nt | 101 | -0.9 | 11
O=C(NC1=NCCS1)c1sc2ccccc2c1Cl | i | 0.75 | -16 | 113 | 114 | -0.6 | 8
NC(=O)c1ccc(NC(=O)Cn2c(=O)n(-c3ccccc3)c(=O)c3oc4ccccc4c32)cc1 | i | 0.98 | nt | nt | 96 | nt | -4
O=C(NCCCN1CCc2ccccc2C1)Nc1ccc(Br)cc1 | i | 0.93 | -6 | 13 | 101 | -4.4 | 7
Cc1ccc(C)c2[nH]c(=O)c(CN(CCN3CCCC3)C(=O)Nc3ccc(F)cc3)cc12 | i | 0.96 | nt | nt | 110 | -2.4 | -9
COc1ccc(C(=O)NC(C)c2nc3ccccc3[nH]2)cc1OC (stereo unspecified) | i | 0.92 | 25 | 112 | 107 | 0.2 | 0
CC(C)CC(=O)O/N=C1\C(=O)N(Cc2ccc(Cl)cc2)c2ccc([N+](=O)[O-])cc21 | i | 0.7 | nt | nt | 99 | -4.3 | 5
CCn1c(COc2ccccc2C)nnc1SCC(=O)NCc1ccccc1 | i | 0.95 | 9 | 93 | 97 | -1.3 | -7
Cc1cc(C)n(S(=O)(=O)/C=C/c2ccccc2)n1 | i | 0.93 | -7 | 67 | 101 | -0.8 | 6
O=C(Nc1ccc(F)cc1)C1CCN(S(=O)(=O)c2cccs2)CC1 | i | 0.93 | -6 | 120 | 98 | nt | -4
Cc1cc(C)c2c(SC(C)C)nc(N)nc2n1 | i | 0.81 | nt | nt | 101 | nt | nt
CCC(C)Sc1nc2c([nH]c3ccccc32)c(=O)n1C (stereo unspecified) | i | 0.72 | nt | nt | 101 | -2.0 | -10
CCc1ccc(NC(=S)N(CCN2CCOCC2)Cc2ccccc2F)cc1 | i | 0.9 | -100 | 66 | 107 | nt | -5
Cc1c(C(=O)OCC(=O)Nc2c(C)n(C)n(-c3ccccc3)c2=O)oc2ccccc12 | i | 1 | nt | nt | 102 | nt | 5
COc1cccc(OC)c1/C(O)=C(\C#N)c1nc2ccccc2[nH]1 | i | 1.1 | 8 | 58 | 100 | -0.3 | 1
O=[N+]([O-])c1cc(-c2n[nH]c(-c3ccccc3)n2)cc([N+](=O)[O-])c1 | i | 0.84 | 55 | 86 | 101 | -1.5 | 18
COC(=O)C(=Cc1ccc(OCc2ccc([N+](=O)[O-])cc2)c(OC)c1)C(=O)OC | i | 0.84 | -4 | 110 | 94 | -1.2 | -3
CC(=O)C1=C(O)C(=O)N(CCC(=O)O)C1c1ccccc1[N+](=O)[O-] (stereo unspecified) | i | 1 | 0 | 130 | 102 | nt | 0
Cc1nc2ccc(N3C(=O)CCC3=O)cc2[nH]1 | i | 0.95 | -11 | 172 | 105 | -1.4 | -11
O=C(N=Nc1c(O)[nH]c2ccc([N+](=O)[O-])cc12)c1ccccc1Cl | i | 1.1 | nt | nt | 83 | nt | nt
COC(=O)c1ccc(OCC(O)CN2C(=O)NC(C)(C)C2=O)cc1 (stereo unspecified) | i | 0.87 | 21 | 120 | 100 | -1.7 | -7
CCOC(=O)NC(=O)CSc1nc2ccc(OCC)cc2[nH]1 | nt | nt | 24 | 102 | 98 | -3.4 | -11
COc1cc(CC(=O)OCC(=O)NC2CCCCC2)cc(OC)c1OC | i | 0.91 | 44 | 97 | 103 | nt | -3
CCCN1Cc2cccc(C(=O)Nc3ccc(CN4CCCC4)cc3)c2C1=O | i | 0.77 | -50 | 118 | 103 | -1.1 | 40
Cc1ccc(C2c3sc(=O)[nH]c3SC3C(=O)NC(=O)C32)cc1 (stereo unspecified) | i | 0.99 | 11 | 98 | 101 | -1.0 | 3
CNC(=O)NC(=O)CSc1nc(-c2cccs2)c(C#N)c(=O)[nH]1 | i | 0.98 | 33 | 107 | 111 | nt | 0
CCOC(=O)C1=NOC(CNC(=O)c2c(-c3ccccc3Cl)noc2C)C1 (stereo unspecified) | i | 0.83 | 6 | 110 | 104 | -2.4 | -7
COc1ccc(/C=N\NC(=O)CNC(=O)C(c2ccccc2)c2ccccc2)cc1[N+](=O)[O-] | i | 0.85 | -27 | 145 | 100 | -1.1 | -10
N#Cc1cc(N)c(Nc2ccccc2)cc1C#N | i | 0.97 | nt | nt | 100 | -0.4 | 9
COc1ccccc1Nc1nnc(SCc2cc(=O)n3cc(C)ccc3n2)s1 | i | 0.99 | -37 | 96 | 78 | 0.1 | -4
C=C1C(=O)[C@@]23[C@H](O)C[C@@H]4C(C)(C)CC[C@H](O)[C@@]4(C)[C@@H]2CC[C@@H]1[C@H]3O | i | 0.53 | -105 | 7 | 100 | -0.2 | -8
Cc1nn(-c2ccccc2)c(/N=C/c2ccc(O)cc2)c1-c1ccccc1 | i | 0.94 | -43 | 104 | 100 | -0.7 | -1
O=C(Cn1cnc(Cl)c1Cl)c1ccccc1 | i | 1 | nt | nt | 100 | nt | -5
Cc1ccc(S(=O)(=O)N2CCOC2CNC(=O)C(=O)NCCc2ccccc2)cc1 (stereo unspecified) | i | 0.97 | nt | nt | 103 | nt | nt
CCN(CC)S(=O)(=O)c1ccc2c(c1)nc(CCC(=O)Nc1ccc3c(c1)OCO3)n2C | i | 0.96 | 1 | 79 | 103 | -0.7 | -5
CNS(=O)(=O)c1cccc(C(=O)Nc2cccnc2)c1 | i | 0.91 | -2 | 138 | 74 | -1.5 | -6
CCOC(=O)c1c(C)n(OCc2ccccc2)c2ccc3c(no[n+]3[O-])c12 | i | 0.88 | nt | nt | 102 | 0.0 | -5
O=C(c1ccccc1)N1CCN(c2ccc([N+](=O)[O-])c(NCc3cccnc3)c2)CC1 | i | 1.1 | 0 | 72 | 28 | -0.1 | 5
Cc1ccc(C(=O)/C=C/c2ccc3c(c2)OCO3)o1 | i | 1 | -14 | 109 | 100 | -2.7 | -2
CCn1ccnc1C(O)c1ccc(N(C)C)cc1 (stereo unspecified) | i | 0.96 | nt | nt | 100 | -1.6 | 15
CC(C)c1nc(SCC(=O)Nc2ccc3c(c2)OCO3)n[nH]1 | i | 1 | -31 | 102 | 101 | -1.6 | -3
Cc1ccc(C)c(C(=O)NC2CC(C)(C)NC(C)(C)C2)c1 | i | 0.99 | -32 | 91 | 106 | -2.0 | -5
New compounds follow
SMILES | HSV replic up | HSV replic up primary fold | Insulin prom inh | Insulin prom inh cell count | RGS16-Gao | GALR2 agonist | PKD1 kinase inh
Cc1cc(C)c(NC(=O)c2ccc(S(=O)(=O)N(C)C)cc2)c(C)n1 | i | 0.93 | 30 | 150 | 103 | -0.6 | 6
O=C(CN1C(=O)NC(Cc2c[nH]c3ccccc23)C1=O)Nc1cccc(S(=O)(=O)N2CCOCC2)c1 (stereo unspecified) | i | 1.1 | nt | nt | 100 | nt | nt
Cc1ccn(C(=O)c2ccc(NC(=O)C3CC3)cc2)n1 | i | 1 | nt | nt | 103 | nt | 0
CNC(=O)c1[nH]cnc1C(=O)N[C@@H](C)C(=O)OC(C)(C)C | i | 0.85 | nt | nt | 102 | nt | 0
O=C(NCCC(=O)N1CCOCCOCCOCCOCC1)OCc1ccccc1 | i | 0.85 | nt | nt | 101 | nt | nt
c1ccc(Nc2nnc(-c3cccc4ccccc34)o2)cc1 | i | 0.9 | nt | nt | 103 | nt | nt
COc1cc(/C=C/C(=O)OCC(=O)N2CCCCCC2)ccc1OCC#N | i | 0.95 | -50 | 127 | 95 | nt | -1
O=S1(=O)CC(N2CCCCC2)C(N2CCCCC2)C1 (stereo unspecified) | i | 0.95 | nt | nt | 100 | 0.2 | -5
Cc1sc2ncnc(SCC(=O)NC3CC3)c2c1C | i | 0.87 | 100* | 0.5* | 105 | -1.3 | 4
COc1ccc(-c2csc3nc(C)n(-n4cccc4)c(=O)c23)cc1 | i | 0.85 | 0 | 69 | nt | -0.9 | 14
CCOC(=O)c1cnc2c(C)c(Cl)ccc2c1Nc1ccc(S(=O)(=O)Nc2ncccn2)cc1 | i | 1.1 | 11 | 146 | 103 | 0.1 | -7

Compound profiles, from the list above.
Results for Cc1ccn(C(=O)c2ccc(NC(=O)C3CC3)cc2)n1 = HSV replic up: i; HSV replic up primary fold: 1; Insulin prom inh: nt; Insulin prom inh cell count: nt; RGS16-Gao: 103; GALR2 agonist: nt; PKD1 kinase inh: 0
Results for COc1ccc(-c2csc3nc(C)n(-n4cccc4)c(=O)c23)cc1 = HSV replic up: i; HSV replic up primary fold: 0.85; Insulin prom inh: 0; Insulin prom inh cell count: 69; RGS16-Gao: nt; GALR2 agonist: -0.9; PKD1 kinase inh: 14
Results for Cc1cc(C)c(NC(=O)c2ccc(S(=O)(=O)N(C)C)cc2)c(C)n1 = HSV replic up: i; HSV replic up primary fold: 0.93; Insulin prom inh: 30; Insulin prom inh cell count: 150; RGS16-Gao: 103; GALR2 agonist: -0.6; PKD1 kinase inh: 6

In another format: entries from further up
Every second line gives: HSV replic up | HSV replic up primary fold | Insulin prom inh | Insulin prom inh cell count | RGS16-Gao | GALR2 agonist | PKD1 kinase inh
O=C(NCCC(=O)N1CCOCCOCCOCCOCC1)OCc1ccccc1
→ i | 0.85 | nt | nt | 101 | nt | nt
c1ccc(Nc2nnc(-c3cccc4ccccc34)o2)cc1
→ i | 0.9 | nt | nt | 103 | nt | nt
